RN4220 kill: S. aureus RN4220 growth inhibition; inhibition, % (concentration not given with the values); OD600, 16 h; 0.33% of 330,000 active;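 active = z-score of -3 or lower and OD600 up to 0.18 on both plates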;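 also: plate controls were untreated cells for no effect and reference antibiotic for full effect; stock transfer was 100 nL into about 80 µL; one replicate is shown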
Mtb hypoxia rep: inhibitors of hypoxia-regulated fluorescent reporter in Mycobacterium tuberculosis; M. tuberculosis hypoxia-regulated fluorescent reporter, fluorescence; fluorescence inhibition, % (no concentration beside the values); 0.1% of 300,000 active; AID 1159583;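 active = 35 to 45% if threefold the growth effect, above 45% if 1.5-fold the growth effect; inactive = the rest, general growth blockers included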;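 also: wells of about 50 µL received 100 nL stock; 0% = vehicle wells and 100% = reference inhibitor wells; whole bacteria with a GFP reporter of the hypoxia response; strong numbers were not always called active; many hits fall short of the cut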
Autofluor counter: compound fluorescence in toxin protease inhibitor counterscreen. compound autofluorescence counterscreen, microsphere flow cytometry; active compounds read high. fluorescence intensity (no concentration beside the values). 3.1% of 360,000 active;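 active = at least 3 SD above the mean of all compounds, about 16000 in these data; inconclusive = too few beads counted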;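 also: 100 nL of 1 mM stock went into each well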
BJeLR viability: BJeLR cell viability loss | BJeLR (HRASV12) viability, CellTiter-Glo ATP luminescence, 48 h; reference of the scale not given here | inhibition, % (concentration not given with the values) | 0.17% of 300,000 active | AID 1554;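 active = replicate mean above 50%; inconclusive = above 50% but judged a plate artefact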;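 also: 50 nL library stock added to about 25 µL; numbers are from one replicate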
Sa ugtP lethal: growth inhibition of S. aureus ugtP deletion strain; S. aureus RN4220 ugtP deletion, OD600 growth, 16 h; some inactives read as strong as hits; growth inhibition, % (concentration not given with the values); 0.54% of 330,000 active; AID 1259309;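 active = z-score under -3 and OD600 up to 0.15 on both plates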;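 also: plate controls were untreated wells for no effect and antibiotic for full effect; wells of about 80 µL received 100 nL stock; the first replicate is given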
PrP 5UTR inh: inhibition of PrP 5' UTR reporter expression. cell-based PrP 5' UTR mRNA reporter, plate reader. inhibition, % (concentration not given with the values). 0.35% of 340,000 active. AID 488862;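 active = every replicate at 50% or more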;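 also: 0 = median of the neutral control wells; tested in H4 reporter cells; numbers are from one replicate; inactives centre near -14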
Mtb hypoxia rep growth: second read-out of Mtb hypoxia rep, no call of its own (marks repeat the call); growth inhibition, %; measured here: M. tuberculosis growth (absorbance);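 0% = vehicle and 100% = reference antibiotic; read after six days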
Starred values were filed as active, the others as inactive; ? = inconclusive; . = not tested or not shown.

SMILES | RN4220 kill | Mtb hypoxia rep | Mtb hypoxia rep growth | Autofluor counter | BJeLR viability | Sa ugtP lethal | PrP 5UTR inh
Cc1ccc(C)c(S(=O)(=O)N2CCCC2CNC(=O)C(=O)NC2CCCC2)c1 (stereo not drawn) | 4.2 | 1.1 | 2.0 | 6599 | 2.6 | -1.0 | -14.2
CN(CC(=O)Nc1ccc(F)c(F)c1F)C(=O)c1ccc(-n2cncn2)cc1 | 0.6 | 14.9 | 10.4 | 3448 | . | 7.3 | -16.5
COc1ccc(N2CCN(C3CC(=O)NC3=O)CC2)cc1 (stereo not drawn) | -0.9 | -1.9 | 0.6 | 24614* | 5.6 | 0.4 | -6.0
CC1=CC(C)(C)Nc2ccc(OC(=O)C(C)N3C(=O)c4ccccc4C3=O)cc21 (stereo not drawn) | 6.1 | 1.7 | 3.2 | 3384 | -0.3 | 3.0 | -12.4
Cc1nnc(SC(C)C(=O)Nc2ccc(Cl)cn2)n1Cc1ccccc1 (stereo not drawn) | 4.2 | -6.2 | 4.2 | 8919 | 15.9 | -7.3 | -7.5
CCOC(=O)Cc1csc(NC(=O)CSc2nnc(-c3ccc(OC)cc3)n2C)n1 | 2.5 | 2.8 | 11.4 | 20591* | 7.0 | -4.3 | -13.9
Cn1c(=O)c(=O)n(C)c2cc([N+](=O)[O-])c([N+](=O)[O-])cc21 | 3.6 | 6.8 | -0.8 | 4218 | -1.5 | -9.0 | -20.5
O=c1cc(N2CCN(c3ccccc3)CC2)[nH]c(=O)n1Cc1ccc(F)cc1 | -4.2 | 1.1 | 10.4 | 5253 | 1.9 | -10.0 | -20.9
CC(=O)Nc1ccc(-c2nc3c(C)cccc3[nH]2)cc1 | 3.4 | 11.0 | 11.1 | 6340 | 0.7 | -1.9 | -63.3
COC(=O)c1cc(OC)c(OC)cc1NC(=S)Nc1cccc(Cl)c1 | . | . | . | 3339 | 6.9 | . | -10.4
O=C1C2ON(c3ccccc3)C(c3ccccc3F)C2C(=O)N1c1ccccc1 (stereo not drawn) | 6.0 | . | . | 2652 | 7.2 | -3.6 | -1.2
O=C(N/N=C\c1cccs1)c1ccccc1-n1cccc1 | . | . | . | 3444 | 5.5 | . | 41.2
COc1ccc(OC)c(NC(=O)CNC(=O)c2cccs2)c1 | 3.5 | 5.9 | 12.0 | 21327* | 1.1 | -0.9 | 7.8
O=C(O)/C=C\c1cccc(-n2cnnn2)c1 | 1.3 | 10.3 | -0.3 | 1989 | 1.4 | 3.1 | -1.7
COc1cccc(C=NNC(=O)CN(CCc2ccccc2)S(=O)(=O)c2ccc(NC(C)=O)cc2)c1 | 0.4 | 0.9 | 1.6 | . | . | -17.8 | .
CC1CCC(NC(=O)c2cc3ccccc3cc2O)CC1 (stereo not drawn) | -3.5 | 9.2 | 9.9 | . | . | -10.5 | -73.5
CN(C)C(CNC(=O)CN1C(=O)NC2(CCCC2)C1=O)c1ccccc1 (stereo not drawn) | 4.0 | 11.2 | 4.8 | 3882 | . | 6.0 | .
N/C(=N\OC(=O)Nc1cccc(C(F)(F)F)c1)c1ccno1 | -3.3 | -6.8 | 10.7 | 4392 | -7.4 | -29.3 | -26.5
O=[N+]([O-])c1c2ccccc2cc2ccccc12 | 2.1 | 11.0 | 11.2 | 4115 | . | 22.8 | -10.9
c1ccc2c(c1)[nH]c1nc(SCCN3CCOCC3)nnc12 | 10.8 | . | . | 3559 | 13.6 | 9.0 | -24.6
O=C(NCCc1c[nH]c2ccccc12)OCCCCOC(=O)NCCc1c[nH]c2ccccc12 | -5.5 | 3.5 | 3.1 | 3500 | 6.3 | -42.6 | -41.3
Cc1ccc(C(=O)N2CCN(C)CC2)cc1[N+](=O)[O-] | 2.5 | 4.5 | -3.5 | 4137 | -5.1 | 4.1 | -14.9
CCC(C)C1NC(=O)c2cc([N+](=O)[O-])cc(F)c2NCCCCC(C(N)=O)NC(=O)C(CCCCN)NC1=O (stereo not drawn) | -0.1 | 9.1 | 9.6 | . | . | -2.4 | .
CCc1nccn1CCC(=O)N1CCCC(N2CCN(c3ccccc3C)CC2)C1 (stereo not drawn) | 4.9 | 1.0 | 8.3 | 4440 | 1.6 | -0.3 | 1.0
O=C(CSc1nnc(CNC(=O)c2cccs2)o1)Nc1ccc(Br)cc1 | 4.3 | 2.5 | -5.0 | 5960 | -7.7 | 5.0 | 1.4

One compound at a time, from the list above.
N/C(=N\OC(=O)Nc1cccc(C(F)(F)F)c1)c1ccno1 across the screens: RN4220 kill = -3.3; Mtb hypoxia rep = -6.8; Mtb hypoxia rep growth = 10.7; Autofluor counter = 4392; BJeLR viability = -7.4; Sa ugtP lethal = -29.3; PrP 5UTR inh = -26.5
CCc1nccn1CCC(=O)N1CCCC(N2CCN(c3ccccc3C)CC2)C1 (stereo not drawn) across the screens: RN4220 kill = 4.9; Mtb hypoxia rep = 1.0; Mtb hypoxia rep growth = 8.3; Autofluor counter = 4440; BJeLR viability = 1.6; Sa ugtP lethal = -0.3; PrP 5UTR inh = 1.0
CCOC(=O)Cc1csc(NC(=O)CSc2nnc(-c3ccc(OC)cc3)n2C)n1 across the screens: RN4220 kill = 2.5; Mtb hypoxia rep = 2.8; Mtb hypoxia rep growth = 11.4; Autofluor counter = 20591*; BJeLR viability = 7.0; Sa ugtP lethal = -4.3; PrP 5UTR inh = -13.9

Other structures:
SMILES | RN4220 kill | Mtb hypoxia rep | Mtb hypoxia rep growth | Autofluor counter | BJeLR viability | Sa ugtP lethal | PrP 5UTR inh
Cc1nn(C)c(C)c1/C=C/C(=O)c1cccs1 | 5.0 | -6.2 | -4.1 | 3687 | 10.4 | 0.6 | -49.2
CCOc1ccc(C(c2nnnn2C(C)(C)C)N2CCN(C(=O)c3ccco3)CC2)cc1 (stereo not drawn) | 6.3 | 8.7 | 0.6 | 3041 | -3.9 | 13.9 | -6.4
Cc1ccsc1C(=O)OCC(=O)N1CCN(c2ccccc2)CC1 | 4.3 | 10.7 | 7.5 | 2893 | . | 4.8 | -32.2
Cc1ccsc1C1Nc2ccccc2-c2nc3ccccc3n21 (stereo not drawn) | 7.4 | 16.7 | 10.5 | 2150 | -3.0 | 16.8 | -35.5
Cc1c(C)c2ccc(OC(C)C(=O)N3CC[C@@]4(O)CCCC[C@H]4C3)cc2oc1=O (stereo partly drawn) | 6.5 | . | . | 5468 | -5.4 | -5.9 | 4.7
CCOc1ccccc1NC(=O)CNC(=O)N1CC(=O)Nc2ccccc21 | -1.4 | 4.0 | 13.6 | 5744 | 6.7 | -1.4 | -2.4
COc1ccc(OC)c(-c2csc(NC(=O)Cc3ccc(OC)c(OC)c3)n2)c1 | 2.4 | 1.4 | 1.1 | 4566 | -4.3 | 12.8 | -2.9
c1ccc(-c2nnc(CN3CCN(C(c4ccccc4)c4ccccc4)CC3)o2)cc1 | -3.7 | 8.8 | 5.4 | 4356 | 6.7 | -1.1 | -6.7
Cc1sc(NC(=O)c2ccccc2F)c(CN2CCCCC2)c1C | 5.4 | 9.9 | 2.4 | 2630 | 2.4 | 4.2 | -56.2
Cc1cccc(N2CCN(C(=S)c3ccc4c(c3)OCO4)CC2)c1 | 3.9 | 1.2 | 7.5 | 3638 | . | -3.4 | -13.4
C=CCn1c(NCc2ccco2)nc2ccccc21 | -1.1 | 8.8 | 18.9 | 3642 | -1.9 | 6.0 | -20.2
Cc1ccc(C)c(-n2cc(CNCCCn3cccn3)c(-c3ccccc3)n2)c1 | 1.4 | 9.9 | 5.4 | 4751 | -3.8 | 8.5 | -37.9
CC(c1ccc(F)cc1)n1c(Cn2ncc3ccccc3c2=O)n[nH]c1=S (stereo not drawn) | 7.2 | 2.4 | 16.0 | 4579 | 8.3 | 1.8 | -17.8
COc1ccccc1CC1CC(=O)N(c2ccccc2)C1=O (stereo not drawn) | -0.1 | 18.7 | 15.6 | 3953 | -4.9 | 3.9 | -10.2
CCn1c(/C=C2/C(=O)N(C)c3ccccc32)nc2ccccc2c1=O | 4.6 | 4.0 | 2.2 | 3637 | 1.2 | -4.9 | -35.7
O=C(NN1C(=O)/C(=C/c2cccc(O)c2)SC1=S)c1ccccc1O | 23.6 | 2.3 | -0.4 | 4377 | -3.7 | -7.5 | -3.6
CCn1c2ccc(OC)cc2c2nc3ccccc3nc21 | 6.6 | 5.8 | 15.1 | . | 0.8 | 9.9 | .
O=C(COc1ccccc1[N+](=O)[O-])Nc1cc(C(=O)O)cc(C(=O)O)c1 | 5.6 | -0.4 | 4.6 | 2240 | -7.1 | 14.8 | -12.7
CCc1ccc(Nc2nnc(SCC(=O)c3c(N)n(C4CC4)c(=O)[nH]c3=O)s2)cc1 | 1.7 | 5.7 | 9.5 | ? | . | 3.8 | .
CS(=O)(=O)N(CC(=O)O)c1cc(Cl)cc(Cl)c1 | 1.2 | 14.0 | 8.9 | 4003 | -1.1 | 6.2 | -6.3
O=S(=O)(N=C(c1ccccc1)N1CCCCC1)c1ccccc1 | 12.4 | 0.7 | -3.3 | . | . | -7.5 | .
Cc1nnsc1C(=O)N1CCC(CO)(Cc2ccccc2Cl)CC1 | 4.8 | 5.1 | 8.8 | 4201 | -0.1 | 16.0 | -21.0
CCCCOC(=O)c1cccc(NC(=O)CCC(=O)O)c1 | 4.7 | 0.8 | 1.2 | 20646* | -2.1 | 8.5 | -39.3
COc1cc(C=NNC(=O)c2cc(-c3ccccc3)nc3ccccc23)cc(OC)c1O | 1.2 | -1.5 | -3.5 | . | . | -2.3 | .
c1ccc(CCc2nn3c(Cn4nnc5ccccc54)nnc3s2)cc1 | 3.7 | -1.3 | 11.4 | 4342 | 4.4 | 4.5 | -11.7
SMILES | RN4220 kill | Mtb hypoxia rep | Mtb hypoxia rep growth | Autofluor counter | BJeLR viability | Sa ugtP lethal | PrP 5UTR inh
NCc1cc(=O)[nH]o1 | 0.6 | -2.4 | 7.7 | 6102 | . | -1.4 | -26.4
C=C(Br)Cn1c(CC(C)C)nc2ccccc21 | 4.8 | 11.5 | 2.6 | 3092 | 5.2 | 8.7 | -14.0
COC(=O)n1c(=O)oc2ccccc21 | 1.8 | . | . | 2942 | 4.1 | -9.4 | -23.2
CC(C)c1ccc(C=NNC(=O)C2CCCC2)cc1 | 6.2 | 5.5 | 2.4 | . | . | -0.6 | .
CC(=O)c1ccc(NC(=O)/C(Cl)=C/c2ccccc2)cc1 | -1.0 | -1.0 | 4.1 | 4847 | 4.6 | -20.2 | -19.6
Cc1ccc(F)cc1CNC(=O)C1CCC(=O)N(CCCN2CCCC2=O)C1 (stereo not drawn) | 4.1 | -1.4 | 1.5 | 7164 | -0.1 | 8.3 | -11.9
CC1=C(C(=O)OCC2CCCO2)C(c2ccc(Cl)c(Cl)c2)NC(=O)N1 (stereo not drawn) | 3.8 | -0.9 | 5.4 | 4468 | -5.4 | 0.8 | -1.3
CCN(CC)CC(=O)c1c(N)n(Cc2ccccc2)c(=O)n(C)c1=O | 5.5 | 15.2 | 4.8 | 3251 | -1.5 | 4.9 | -0.7
Cc1ccc(C(=O)NCCNc2ncc(C(F)(F)F)cc2Cl)cc1[N+](=O)[O-] | 0.1 | 2.0 | -1.8 | 3767 | 3.5 | -3.3 | -28.2
O=S(=O)(c1ccc(-c2nc3ccccc3s2)cc1)N1CCCC1 | 0.9 | 1.9 | 3.2 | 11222 | 2.0 | -1.8 | -91.0
CCCC(=O)NC(=S)Nc1cccc(NC(=O)c2ccc(Cl)cc2Cl)c1 | 14.1 | . | . | 2971 | 8.1 | 25.6 | -12.9
COC(=O)c1ccccc1NC(=O)Cn1nnc(-c2ccc(OC)cc2)n1 | 10.1 | 4.9 | 2.4 | 12382 | -9.9 | 4.1 | -21.6
O=C(COC(=O)COc1ccccc1Cl)Nc1ccccc1OC(F)F | . | . | . | 9996 | 3.2 | . | -1.3
N#Cc1nc(-c2ccc(F)cc2)oc1N1CCCC1 | -0.1 | . | . | 3578 | -3.6 | 2.4 | -2.4
NC1=NC(=Nc2ccc(Cl)cc2)c2ccccc21 | -2.3 | 2.2 | -1.0 | 2363 | 5.6 | -0.8 | -11.0
O=C(NCC1CCCO1)C12CN(Cc3ccccc3)CC1C(c1cccc([N+](=O)[O-])c1)=NO2 (stereo not drawn) | 2.8 | 5.0 | 9.9 | 4260 | -13.7 | -7.4 | -16.6
Cc1cccc(N2O[C@H]3C=CC2CCCC3)n1 | 4.0 | 3.6 | 4.3 | 3536 | . | 7.4 | -53.9
CC(C)c1ccc(Nc2nc(CC(=O)O)cs2)cc1 | 1.6 | 24.3 | 33.7 | 2270 | 1.7 | 6.1 | -47.7

High-throughput results as filed in PubChem.
